# Screening results as filed in PubChem.
# RN4220 kill = growth inhibition of S. aureus RN4220, primary screen, OD600 | AID 1259311, 2017 | hit rate 0.33% among 330,000 | inhibition, % (test concentration not listed) | 16 h;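 active = z-score of -3 or lower and OD600 up to 0.18 on both plates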;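 also: plate controls were untreated cells for no effect and reference antibiotic for full effect; stock transfer was 100 nL into about 80 µL; one replicate is shown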
# BJeLR viability = MLPCN primary cell-based screen for lethality selective to Ras in HRASV12 cells | BJeLR (HRASV12) viability, CellTiter-Glo ATP luminescence, 48 h; reference of the scale not given here | hit rate 0.17% among 300,000 | AID 1554, 2009 | inhibition, % (concentration not given with the values);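 active = replicate mean above 50%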;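 also: 50 nL library stock added to about 25 µL; numbers are from one replicate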
# Mtb hypoxia inh = PubChem AID 1159583; fluorescence inhibition, % (concentration not given with the values); hit rate 0.1% among 300,000; M. tuberculosis hypoxia-regulated fluorescent reporter, fluorescence;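 active = 35 to 45% if threefold the growth effect, above 45% if 1.5-fold the growth effect; inactive = the rest, general growth blockers included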;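 also: wells of about 50 µL received 100 nL stock; 0% = vehicle wells and 100% = reference inhibitor wells; whole bacteria with a GFP reporter of the hypoxia response; strong numbers were not always called active; many hits fall short of the cut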
# Bead autofluor = counter-screen for toxin protease inhibitors: compound fluorescence. compound autofluorescence counterscreen, microsphere flow cytometry; active compounds read high. fluorescence intensity (concentration not given with the values). hit rate 3.1% among 360,000. AID 624483;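 active = at least 3 SD above the mean of all compounds, about 16000 in these data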;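 also: 100 nL of 1 mM stock went into each well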
# Sa ugtP lethal = growth inhibition of ugtP-null S. aureus, primary screen, RN4220 ugtP deletion, OD600; growth inhibition, % (test concentration not listed); hit rate 0.54% among 330,000; 16 h; some inactives read as strong as hits; AID 1259309, 2017;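 active = z-score under -3 and OD600 up to 0.15 on both plates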;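 also: plate controls were untreated wells for no effect and antibiotic for full effect; wells of about 80 µL received 100 nL stock; the first replicate is given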
# PrP 5UTR inh = inhibition of PrP 5' UTR reporter expression. cell-based PrP 5' UTR mRNA reporter, plate reader. hit rate 0.35% among 340,000. inhibition, % (concentration not given with the values);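 active = every replicate at 50% or more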;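 also: 0 = median of the neutral control wells; tested in H4 reporter cells; numbers are from one replicate; inactives centre near -14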
# Mtb hypoxia inh growth = recorded beside Mtb hypoxia inh, whose call it bears; growth inhibition, %; measured here: M. tuberculosis growth (absorbance);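 0% = vehicle and 100% = reference antibiotic; read after six days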
# * hit, by the source's call; x = no result given.
[1] CCN1CCN(c2ccc(NC(=O)c3cccc(S(=O)(=O)N4CCCC4)c3)cc2)CC1
[2] Cc1ccc(S(=O)(=O)Nc2ccc(C(=O)Nc3ccncc3)cc2)cc1
[3] O=C(CNS(=O)(=O)c1cccc(C(F)(F)F)c1)NC1CCCCCC1
[4] Cc1ccc(C)c(NS(=O)(=O)c2ccc3c(c2)Cc2cc(S(=O)(=O)Nc4cc(C)ccc4C)ccc2-3)c1
[5] Cc1nn(C)c(C(=O)NNC(=S)Nc2ccc(F)cc2)c1[N+](=O)[O-]
[6] CCN(CC)S(=O)(=O)c1ccc(-c2nnc(SCc3nnc(-c4ccc(C)cc4)o3)o2)cc1
[7] CCOC(=O)C1=C(C)NC(=O)NC1c1cccc(OC)c1OCc1ccccc1Cl (configuration not stated)
[8] Cc1nnc(N2CCN(c3ccccc3)CC2)[nH]c1=O
[9] O=C(Nc1ccc2c(c1)OCCO2)C1CCCN(S(=O)(=O)c2cnc[nH]2)C1 (configuration not stated)
[10] CCN(C(=S)Nc1cccc(C)c1)c1ccccc1

assay / entry	1	2	3	4	5	6	7	8	9	10
RN4220 kill	4.1	4.5	6.3	9.7	2.8	6.0	2.8	-4.1	0.6	7.5
BJeLR viability	x	-2	x	x	1	-3	-6	-5	3	5
Mtb hypoxia inh	6	8	5	12	3	-3	4	x	x	8
Mtb hypoxia inh growth	-2	7	6	-11	1	0	-2	x	x	9
Bead autofluor	4086	2065	2908	10981	9866	5825	23671*	4631	5469	2544
Sa ugtP lethal	6	-1	7	0	6	-6	-13	0	1	8
PrP 5UTR inh	-20	-23	-1	-6	-8	-48	-13	-21	-7	-17

# Fetched one by one from above, 3 records:
[4] Cc1ccc(C)c(NS(=O)(=O)c2ccc3c(c2)Cc2cc(S(=O)(=O)Nc4cc(C)ccc4C)ccc2-3)c1
[8] Cc1nnc(N2CCN(c3ccccc3)CC2)[nH]c1=O
[9] O=C(Nc1ccc2c(c1)OCCO2)C1CCCN(S(=O)(=O)c2cnc[nH]2)C1 (configuration not stated)

assay / entry	4	8	9
RN4220 kill	9.7	-4.1	0.6
BJeLR viability	x	-5	3
Mtb hypoxia inh	12	x	x
Mtb hypoxia inh growth	-11	x	x
Bead autofluor	10981	4631	5469
Sa ugtP lethal	0	0	1
PrP 5UTR inh	-6	-21	-7

# The list goes on.
[11] O=C(NCc1cccs1)C1CC(c2ccc(Cl)cc2)=NO1 (configuration not stated)
[12] CC(NC(=O)c1ccccc1)C(=O)Nc1ccccc1 (configuration not stated)
[13] Cc1ccc(-c2csc(NC(=O)CN3C(=O)CCC3=O)n2)cc1
[14] CC(=NNS(=O)(=O)c1ccc([N+](=O)[O-])cc1)c1c[nH]c2ccccc12
[15] O=C(c1ccccn1)c1ccc2ccccc2n1
[16] Cc1ccc2oc(=O)cc(CN3CC(C)OC(C)C3)c2c1 (configuration not stated)
[17] CNC(=O)CN(c1cc(OCCOC)c(Cl)cc1Cl)S(=O)(=O)c1ccccc1
[18] CCn1ncc(/C=N\NC(=O)c2ccc3c(c2)c(C)c(C)n3Cc2ccccc2)c1C
[19] CC1CN(CCCSc2ccc(Cl)cc2)CC(C)O1 (configuration not stated)
[20] COC(=O)CSc1cc(C)nc(NC(C)=O)n1

assay / entry	11	12	13	14	15	16	17	18	19	20
RN4220 kill	3.2	8.6	0.3	5.2	3.2	3.2	1.3	x	-0.6	4.3
BJeLR viability	3	x	1	x	3	-14	0	5	x	-3
Mtb hypoxia inh	20	8	-4	-2	9	1	4	x	8	-1
Mtb hypoxia inh growth	9	12	1	0	6	-3	4	x	9	9
Bead autofluor	3699	3768	4090	x	x	5809	4578	3088	3918	6056
Sa ugtP lethal	4	7	7	4	4	3	4	x	3	6
PrP 5UTR inh	-31	-35	-16	x	x	-14	-26	-22	-24	-11

[21] CN(C)c1ccccc1C(=O)N1CCC(n2nccc2NC(=O)C2CC2)CC1
[22] CC(=O)N1CCC(C(=O)Nc2ccc3c(c2)CCC3)CC1
[23] COc1cc(C(=O)OCC(=O)N2CCNC2=O)cc(Cl)c1OC
[24] C#CCOc1cc(C2C3=C(COC3=O)Nc3cc4c(cc32)OCO4)ccc1OC (configuration not stated)
[25] COc1ccc(C(=O)c2nccc3ccccc23)cc1
[26] COc1ccc(OC)c(/C=C/C(=O)Nc2cccc(S(=O)(=O)NC3=NCCCCC3)c2)c1
[27] Cc1cc(NC(=O)CSc2nc(C(C)C)nc3sc4c(c23)CCC(C)C4)no1 (configuration not stated)
[28] CC(C)C(C(=O)Nc1ccccc1F)N1C(=O)c2ccccc2C1=O (configuration not stated)
[29] CC1CN(C(=O)COC(=O)[C@@H](NC(=O)c2ccccc2Cl)C(C)C)CC(C)O1 (some centres not stated)
[30] CC[C@@]12C(=O)N(c3ccccc3)C(=O)N1[C@H](c1cccc(C)c1)[C@@H]1C(=O)N(Cc3ccccc3)C(=O)[C@@H]12

assay / entry	21	22	23	24	25	26	27	28	29	30
RN4220 kill	2.2	3.5	-1.9	13	3.2	6.9	2.1	1.7	3.8	x
BJeLR viability	-15	-7	x	x	8	x	-3	-1	x	7
Mtb hypoxia inh	-7	8	-2	6	11	-4	-8	12	6	x
Mtb hypoxia inh growth	3	-8	-2	4	14	-1	4	3	6	x
Bead autofluor	5316	6314	6148	2029	4030	6807	3502	2884	5871	4378
Sa ugtP lethal	0	5	7	3	10	4	0	11	10	x
PrP 5UTR inh	-5	-35	-13	29	-32	13	-3	-4	-32	-9

[31] CC1CCCC(NC(=O)CCCn2c(=S)[nH]c3ccccc3c2=O)C1C (configuration not stated)
[32] CCOC(=O)C1C2COc3ccc(Br)cc3C2N2C(=O)CN(Cc3ccc(C)cc3)C(=O)[C@@]12C (some centres not stated)
[33] CN(C)S(=O)(=O)c1ccc(NC(=O)COc2cccc3c2OC(C)(C)C3)cc1
[34] CC(C)N(C(=O)COC(=O)c1ccc([N+](=O)[O-])cc1)c1ccccc1
[35] CCOc1ccc(C2CC(c3c(O)n(C)c(=O)n(C)c3=O)=NN2)cc1 (configuration not stated)
[36] CC(C)N=c1c([N+](=O)[O-])nn(C)n1O
[37] CN(CC(=O)Nc1ccccc1Cl)C(=O)CSc1nncs1
[38] CCC(=NNC(=O)Nc1nonc1N)c1ccc(OC)c(OC)c1
[39] c1ccc(CCNc2ccnc3cc4ccccc4cc23)cc1
[40] COc1ccccc1/C=C(/C(=O)OCC(=O)NCc1ccccc1)c1ccccc1

assay / entry	31	32	33	34	35	36	37	38	39	40
RN4220 kill	1.9	4.9	1.7	0.1	3.8	5.4	2.3	1.8	58	-8.2
BJeLR viability	-1	x	x	6	-8	9	0	x	22	-24
Mtb hypoxia inh	0	-9	-4	6	2	4	-2	11	x	1
Mtb hypoxia inh growth	9	1	8	-3	9	11	12	8	x	1
Bead autofluor	3415	x	5680	4097	3943	3471	6165	x	3900	2484
Sa ugtP lethal	17	-28	2	-8	2	5	2	10	8	10
PrP 5UTR inh	-35	x	-21	-15	9	1	3	x	-39	-24

[41] Cc1ccc(C)c(OCCCCn2ccnc2)c1
[42] COC(=O)CNc1cc(S(=O)(=O)N2CCCCC2)ccc1Oc1ccc(C(=O)OC)cc1
[43] C=CCn1c(SC(C)CC)nc(O)cc1=O (configuration not stated)
[44] COc1ccc(C)cc1-n1nnnc1SCc1csc(C)n1
[45] CN(Cc1cnn(C)c1)C(=O)c1sc2cccc(Cl)c2c1Cl
[46] Cc1nnc(NC(=O)CC23CC4CC(CC(C4)C2)C3)s1
[47] CN1CCN(CC(O)COC(c2ccccc2)c2ccccc2)CC1 (configuration not stated)
[48] CCOc1ccc2ccc(OCC)c(/C=N/n3cnnc3)c2c1
[49] O=C(C1CC1)N1CCc2cc(Br)cc(S(=O)(=O)NCc3ccccn3)c21
[50] O=S(=O)(c1ccccc1)N1CCN(CC(O)COc2ccc3c(c2)CCC3)CC1 (configuration not stated)

assay / entry	41	42	43	44	45	46	47	48	49	50
RN4220 kill	7.7	4.9	1.5	7.0	5.3	-1.8	1.9	x	1.8	4.1
BJeLR viability	6	9	-4	-10	-1	-23	21	-20	0	-6
Mtb hypoxia inh	16	-11	2	9	x	6	-2	x	-1	1
Mtb hypoxia inh growth	3	-9	-12	10	x	8	-1	x	11	1
Bead autofluor	10363	11548	3954	4782	x	5823	4568	3995	10123	8789
Sa ugtP lethal	2	7	-1	6	-1	-7	3	x	5	13
PrP 5UTR inh	-18	-14	-15	-17	-13	-13	-10	-36	-15	-31

# A few values from the list.
# Value of CC(=O)N1CCC(C(=O)Nc2ccc3c(c2)CCC3)CC1 under Bead autofluor: 6314
# Value of CC(C)N=c1c([N+](=O)[O-])nn(C)n1O under PrP 5UTR inh: 1
# Value of C=CCn1c(SC(C)CC)nc(O)cc1=O (configuration not stated) under Bead autofluor: 3954
# Value of CC(=NNS(=O)(=O)c1ccc([N+](=O)[O-])cc1)c1c[nH]c2ccccc12 under RN4220 kill: 5.2
# Value of COc1ccc(C)cc1-n1nnnc1SCc1csc(C)n1 under Sa ugtP lethal: 6

# Remaining list, next part.
[51] O=C(CS(=O)(=O)c1c[nH]c2ccccc12)N1CCCc2ccccc21
[52] CN1C(=O)C(=Cc2cn(CC#N)c3ccccc23)C(=O)N(C)C1=O
[53] CCOc1ccc(NS(=O)(=O)c2cc(NC(=O)CCS(=O)(=O)c3ccc(C)cc3)ccc2OC)cc1
[54] Cc1cc(C=O)c(C)n1-c1ccc(N2CCCCC2)c([N+](=O)[O-])c1
[55] Cc1cc(C(=S)N2CCOCC2)c(C)n1-c1ccc(F)cc1
[56] O=C(COC(=O)CNC(=O)c1ccc(Cl)cc1Cl)NC(=O)NC1CCCCC1
[57] O=S(=O)(c1ccc(C2CCCCC2)cc1)N1CCN(c2ncccn2)CC1
[58] CCOC(=O)N1CCC(NS(=O)(=O)c2ccc(C)c(Cl)c2)CC1
[59] CCOc1ccccc1NC(=O)CSc1ccc(-c2sc(C)nc2C)nn1
[60] Cc1cccc(-c2nc(C#N)c(NC3CCCCC3)o2)c1

assay / entry	51	52	53	54	55	56	57	58	59	60
RN4220 kill	-3.5	-0.1	1.8	-4.4	0.9	4.7	4.6	2.0	-0.6	-4.6
BJeLR viability	1	0	-8	-2	8	-2	-4	-3	1	11
Mtb hypoxia inh	4	-1	2	4	-4	5	0	2	0	x
Mtb hypoxia inh growth	11	-3	-1	16	1	5	6	-11	6	x
Bead autofluor	5833	4392	2439	2957	2616	4919	5544	6218	6031	2740
Sa ugtP lethal	-10	1	9	-9	2	11	-2	3	-2	2
PrP 5UTR inh	-23	-17	-11	-10	-26	-21	0	-27	-9	-84

[61] Cc1cc([N+](=O)[O-])nn1Cc1ccc(C(=O)N/N=C/c2ccc(F)cc2)cc1
[62] COc1ccc(NC(=O)COc2cccc3c2CCN(Cc2cccnc2)C3=O)c(OC)c1
[63] CCCCn1nc(NC(=O)CC)c2cc3cc(OC)ccc3nc21
[64] COc1ccc(C(=O)O)cc1S(=O)(=O)Nc1ccc(C)cc1
[65] Cc1c(C(=O)NNS(=O)(=O)c2ccccc2)sc(=S)n1C
[66] COc1ccccc1-n1nnnc1SCC(=O)N1CCCC1=O
[67] O=C(O)CSc1ncnc2sc3c(c12)CCC3

assay / entry	61	62	63	64	65	66	67
RN4220 kill	x	2.5	4.2	6.3	3.5	-1.0	7.7
BJeLR viability	0	-2	-10	6	-2	-4	-1
Mtb hypoxia inh	x	12	-2	11	8	6	0
Mtb hypoxia inh growth	x	8	3	10	7	9	0
Bead autofluor	3553	6190	3231	4515	10672	4487	19351*
Sa ugtP lethal	x	2	8	9	5	1	8
PrP 5UTR inh	-7	-12	-9	-24	-19	-2	2
